Source: PubChem
LASV entry inh = Lassa virus entry inhibition. Lassa virus pseudotype entry inhibition, cell reporter; control for the full effect not named in the record. Potency, µM (titrated, usually from 37.9 µM), inactives show top-dose activity change, negative = inhibition, usual class: inhibitors. 1.2% of 300,000 active. AID 540256; active means well fitted inhibition curve with a large enough effect; inconclusive means small, poorly fitted or top-dose-only effect, or effect the other way; inactive means flat fitted curve, though single readings scatter; tested in HEK293 cells; further: on the % scale 0 is the no-effect control and ±100 the full control effect; nearly all actives have a fitted effect of over 50% in size; luciferase read-out
2A StopGo = FMDV 2A StopGo reporter, luciferase signal; human cells with a luciferase reporter of 2A StopGo recoding; control for the full effect not named in the record; Potency, µM (top dose mostly 57.9 µM), for inactives: top-dose signal change, negative = less light; 1.2% of 410,000 active; active = well fitted falling curve with a large enough effect; inconclusive = small, poorly fitted or top-dose-only effect; inactive = no such curve, though single readings can be large or run the other way; tested in HEK293T cells; further: on the % scale 0 is the no-effect control and ±100 the full control effect; nearly all actives have a fitted effect of over 45% in size; luciferase light after 4 h
NS1 inh = inhibitors of influenza NS1 protein function. S. cerevisiae slowed by influenza A NS1, growth recovery by OD600. Potency, µM (series often up to 46.1 µM), for inactives: at the top dose activity, positive = more growth. 0.4% of 270,000 active. AID 2326; active means well fitted rising curve with a large enough effect; inconclusive means small, poorly fitted or top-dose-only effect; inactive means no such curve, though single readings can be large or run the other way; further: nearly all actives have a fitted effect of over 50% in size
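Read-out: OD600 growth recovery of NS1-expressing budding yeast. Cells grown overnight at 30C in -URA glucose medium, washed, resuspended and diluted 1:100 in 2% galactose assay medium, pH 6.0. Same strain lacking NS1 served as positive control.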
Marburg entry inh = Marburg virus entry inhibition; Marburg virus pseudotyped entry inhibition, cell reporter; control for the full effect not named in the record; about a third of the inactives were read at about 46 µM; Potency, µM (series often up to 37.8 µM), inactives show top-dose activity change, negative = inhibition, most hits filed as inhibitors; 1.8% of 300,000 active; AID 540276; active = well fitted inhibition curve with a large enough effect; inconclusive = small, poorly fitted or top-dose-only effect, or effect the other way; inactive = flat fitted curve, though single readings scatter; tested in HEK293 cells; about a fifth of its hits are not listed in these tables; further: on the % scale 0 is the no-effect control and ±100 the full control effect; luciferase read-out
Cruzain inh noDet = cruzain (T. cruzi) inhibition without detergent; P25779; purified cruzain, Z-FR-AMC fluorescence, no detergent; Potency, µM, for the others: max response, negative = inhibition, hits mostly inhibitors; 2.3% of 200,000 active; AID 1476;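 further: plate controls were enzyme without inhibitor for no effect and buffer without enzyme for full effect; nearly all actives have a fitted effect of over 40% in size; top concentration of the series not given in the record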
Target sequence (P25779 123-467 limits assumed): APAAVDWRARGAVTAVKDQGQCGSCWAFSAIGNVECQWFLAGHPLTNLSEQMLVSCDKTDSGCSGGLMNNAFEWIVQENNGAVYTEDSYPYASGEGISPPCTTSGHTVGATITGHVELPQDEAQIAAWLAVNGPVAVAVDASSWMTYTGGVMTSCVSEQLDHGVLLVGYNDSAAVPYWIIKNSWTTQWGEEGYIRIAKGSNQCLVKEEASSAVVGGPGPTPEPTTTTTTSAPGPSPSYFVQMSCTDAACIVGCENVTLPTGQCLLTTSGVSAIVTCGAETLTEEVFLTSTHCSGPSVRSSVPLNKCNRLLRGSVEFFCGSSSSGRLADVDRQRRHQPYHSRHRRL
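Purified cruzain at 1.5 nM, pre-incubated 15 min with compound at room temperature in 100 mM sodium acetate pH 5.5, 5 mM DTT, 0.00005% Triton X-100. Reaction started with 2 uM Z-FR-AMC; AMC fluorescence increase over 60 s gives rate.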
RE007 growth inh = less growth of the S. pombe RE007 Vpr strain; AID 651644; S. pombe RE007 Vpr strain, BacTiter-Glo ATP luminescence, 24 h; control for the full effect not named in the record; 0.21% of 360,000 active; Potency, µM (doses to about 92.2 µM), without a hit: at the top dose activity change, negative = less growth; active = well fitted falling curve with a large enough effect; inconclusive = small, poorly fitted or top-dose-only effect; inactive = no such curve, though single readings can be large or run the other way;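 further: on the % scale 0 is the no-effect control and ±100 the full control effect; nearly all actives have a fitted effect of over 50% in size; the assay follows cell death caused by Vpr and the record does not say whether a fall means rescue or toxicity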
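Fission yeast RE007 carrying one integrated HIV-1 vpr copy, seeded at OD 0.01 in PMG+AL medium with 23 nL pinned compound. Grown 24 h at 30 degrees; viability read by BacTiter-Glo luminescence after 5 min.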
Cruzain inh Det = inhibitors of Trypanosoma cruzi cruzain with detergent; P25779; purified cruzain, Z-FR-AMC fluorescence, 0.01% Triton; Potency, µM, for the others: max response, negative = inhibition, hits mostly inhibitors; 0.43% of 200,000 active;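 further: plate controls were neutral wells for no effect and buffer without enzyme for full effect; nearly all actives have a fitted effect of over 40% in size; top concentration of the series not given in the record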
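Enzyme 1.5 nM, Z-FR-AMC 2 uM, NaOAc 100 mM pH 5.5, DTT 5 mM, Triton X-100 0.01%; 15 min RT compound preincubation; kinetic ex360/em450, 60 s delta.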
SARS PLP yeast = SARS-CoV PLP inhibition in yeast; AID 485353; 0.19% of 330,000 active; Potency, µM (top dose mostly 32.9 µM), for the others: top-dose activity, positive = growth rescue; S. cerevisiae expressing SARS-CoV PLpro, growth rescue; control for the full effect not named in the record; active means well fitted rising curve with a large enough effect; inconclusive means small, poorly fitted or top-dose-only effect; inactive means no such curve, though single readings can be large or run the other way; further: 0% is about no effect; nearly all actives have a fitted effect of over 55% in size; growth read by luminescence after 48 h
Active calls of the source: *; ? = inconclusive; . = no result given; & = joins results of further samples; [ ] = dose if it differs, or a comment. Unless noted, the call rests on the fitted dose curve; in most records, active means well fitted curve in the direction sought with a large enough effect; inconclusive means small, poorly fitted or top-dose-only effect, or another doubt; inactive means no such curve, though single readings can be large; an effect the other way counts as inactive or inconclusive. Potency means the concentration at half of the fitted maximal effect.

| smiles | LASV entry inh | 2A StopGo | NS1 inh | Marburg entry inh | Cruzain inh noDet | RE007 growth inh | Cruzain inh Det | SARS PLP yeast |
| --- | --- | --- | --- | --- | --- | --- | --- | --- |
| O=C(OCCN1C(=O)c2ccccc2C1=O)c1cc(S(=O)(=O)N2CCOCC2)ccc1Cl | -14% | -10% | -5% | -3% | ? | 3% | -4.1% | -3% |
| O=C(NCCNc1cc(Cl)ccc1[N+](=O)[O-])c1ccco1 | ? | 25% | -16% | 8% | 3% | 13% | -3.1% | 15% |
| CCOC(=O)/C(C#N)=C/c1cc(C)n(-c2ccc(C)cc2)c1C | ? | -8% | 2% | ? | -6% | -2% | -3.3% | -11% |
| Cn1c(N)c(C(C[N+](=O)[O-])c2ccccc2Cl)c(=O)n(C)c1=O (stereo not drawn) | ? | 0% | . | -1% | . | 40µM* | . | . |
| COc1ccc(C(c2nnnn2C2CCCC2)N2CCN(c3ccccc3)CC2)cc1 (stereo not drawn) | ? | -18% | -3% | 0%[46.1 µM] | 8% | -6% | -4.8% | -38% |
| Nc1cc([N+](=O)[O-])ccc1Nc1ccccc1 | ? | ? | 3% | ? | . | -12% | . | -2% |
| CC1CCc2c(sc3nnn(CC(=O)Nc4ccccc4Cl)c(=O)c23)C1 (stereo not drawn) | 1%[46.1 µM] | ? | . | -10%[46.1 µM] | ? | . | -8.4% | . |
| O=C(C1=C(O)C(=O)N(Cc2ccccc2)C1c1ccco1)c1ccco1 (stereo not drawn) | 17% | 57%[activator] | 1% | -1% | -23% | 13% | -6.1% | -11% |
| COc1ccc(N2CC(C(=O)N3CCN(Cc4ccc5c(c4)OCO5)CC3)CC2=O)cc1 (stereo not drawn) | . | -14% | 1% | 18%[46.1 µM] | . | 0% | . | 2% |
| O=C(COc1ccccc1)N=C1SC2CS(=O)(=O)CC2N1c1ccccc1 (stereo not drawn) | . | -6% | 0% | . | . | -4% | . | 2% |
| Cc1cccc(NC(=O)CCCn2c(C)c3cnn(-c4ccccc4)c(=O)c3c2C)c1C | 3%[46.1 µM] | -18% | . | 7%[46.1 µM] | 16% | . | -6.0% | . |
| CCOc1ccc2[nH]c(C)c(CN3CCCCC3)c(=O)c2c1 | 3% | -16% | 7% | 24% | 6% | -10% | 2.1% | 4% |
| Cn1c(C(=O)N2CCC(C(=O)N3CCC4(CC3)OCCO4)CC2)cc2sccc21 | -2% | . | 1% | 4% | 0% | -12% | 3.1% | 0% |
| COc1cc(OC)c(C2C(C(=O)Nc3ccccc3)=C(C)Nc3ncnn32)cc1OC (stereo not drawn) | -7% | -15%&-12% | 0% | ? | -4%&8% | 6% | 4.1%&-3.4% | 2% |
| CCN(CC)C(=O)C1CCN(Cc2ccc(Br)cc2)CC1 | -12% | -5% | -17% | -18% | 4% | -8% | -0.4% | -5% |
| Cc1cc(OCc2nc(-c3cccs3)no2)cc(C)c1Cl | . | 16% | -1% | -1% | 1% | 0% | 0.6% | -17% |
| CCOc1cc(/C=N/Nc2ncc(C)c(=O)[nH]2)ccc1O | -1%[46.1 µM] | 9% | 3% | ? | . | -12% | . | 4% |
| COc1ccc(NC(=O)Cn2c(=O)oc3cc(S(=O)(=O)N4CCCC4)ccc32)cc1OC | -2%[46.1 µM] | ? | . | -3%[46.1 µM] | 9% | . | -3.1% | . |
| Brc1ccc(-c2csc(N/N=C/c3ccco3)n2)cc1 | -7%[46.1 µM] | -21% | . | ? | . | 13% | . | -9% |
| CCOC(=O)C1C(=O)C=C(c2cccs2)CC1c1ccccc1 (stereo not drawn) | 2% | -14% | 13% | -9% | 1% | -15% | -4.7% | -45% |
| Cc1ccc2oc(C(=O)Nc3ccc(S(=O)(=O)N(C)Cc4ccccc4)cc3)cc(=O)c2c1 | 17%[46.1 µM] | -18% | . | -21%[46.1 µM] | 1% | . | -1.4% | . |
| Cc1ccc(SCC(=O)Nc2cccc(NC(=O)c3ccco3)c2)cc1 | -3% | 26% | -30% | -2% | -4% | -29% | -1.3% | -4% |
| O=c1[nH]c(=O)n(CCO)c2nnn(Cc3ccccc3)c12 | -13% | -3% | -17% | 6% | 8% | -3% | 3.1% | -1% |
| COc1ccccc1/C=C/CN1CCN(c2ccccc2)CC1 | -1% | . | 3% | 3% | 8% | 12% | 7.1% | 14% |

One compound at a time (already shown). Order of screens: LASV entry inh, 2A StopGo, NS1 inh, Marburg entry inh, Cruzain inh noDet, RE007 growth inh, Cruzain inh Det, SARS PLP yeast
`CCN(CC)C(=O)C1CCN(Cc2ccc(Br)cc2)CC1` in the list: -12%, -5%, -17%, -18%, 4%, -8%, -0.4%, -5%
`Cc1ccc2oc(C(=O)Nc3ccc(S(=O)(=O)N(C)Cc4ccccc4)cc3)cc(=O)c2c1` in the list: 17%[46.1 µM], -18%, ., -21%[46.1 µM], 1%, ., -1.4%, .
`Cn1c(N)c(C(C[N+](=O)[O-])c2ccccc2Cl)c(=O)n(C)c1=O` (stereo not drawn) in the list: ?, 0%, ., -1%, ., 40µM*, ., .

(list continues)
| smiles | LASV entry inh | 2A StopGo | NS1 inh | Marburg entry inh | Cruzain inh noDet | RE007 growth inh | Cruzain inh Det | SARS PLP yeast |
| --- | --- | --- | --- | --- | --- | --- | --- | --- |
| Cc1ccc2[nH]c(=O)c3cc(C(=O)N(CCCOC(C)C)Cc4ccco4)sc3c2c1 | . | ? | 3% | 10µM* | ? | 7% | -9.9%&-21% | -7% |
| Cn1c(=O)oc2cc(S(=O)(=O)N3CCCC(C(=O)N4CCN(c5ccc(F)cc5)CC4)C3)ccc21 (stereo not drawn) | -9%[46.1 µM] | ? | . | ? | -13% | . | 0.2% | . |
| CN(C)S(=O)(=O)c1cccc(COC(=O)CNC(=O)c2ccc(Br)o2)c1 | 22% | -21% | . | ? | . | 64% | . | 0% |
| Cc1ccc(S(=O)(=O)c2ccc([N+](=O)[O-])cn2)cc1 | ? | 25µM* | -94% | 4µM* | . | ? | . | -12% |
| CCCc1cc(=O)n2[nH]c(CCc3ccccc3)nc2n1 | -6% | -10% | -1% | ? | 3% | -12% | 1.4% | 4% |
| CN(C)CC(O)COC(c1ccc(Cl)cc1)c1ccc(Cl)cc1 (stereo not drawn) | ? | -11% | 1% | ? | . | 3% | . | -7% |
| N#Cc1c(C(F)(F)F)cc(-c2cccs2)nc1SCC(=O)Nc1ccc(Cl)cc1 | -16%[46.1 µM] | ? | . | 4%[46.1 µM] | 1% | . | -1.3% | . |
| CC1=C(C(=O)OCc2ccc(C)cc2)C(c2ccccc2Cl)CC(=O)N1 (stereo not drawn) | 10%[46.1 µM] | ? | . | -4%[46.1 µM] | 4% | . | -11% | . |
| Cc1cccc(C)c1NC(=O)CSCCO | 20% | -8% | -6% | ? | 1% | 10% | 7.1% | -10% |
| CN1C(=O)/C(=C/c2ccc(C(F)(F)F)cc2)Sc2ccc(C(=O)N3CCN(c4ccccn4)CC3)cc21 | 21%[46.1 µM] | -3% | -5% | ? | . | -17% | . | -7% |
| CC(=O)N(CCc1cccc(C)c1)Cc1cc2cc(C)ccc2[nH]c1=O | . | -27% | 15% | . | . | 6% | . | -3% |
| CCC(CC)NC(=O)COC(=O)c1cc(Br)ccc1Cl | 4% | -6% | 0% | ? | 0% | 12% | -2.6% | 13% |
| NCCc1ccc(O)cc1 | ? | -2%&7%&-6% | 8%&-3% | 28%&28%&20%&28%&28%&28%&28%&28%&28%&28%&28% | 0%&-9%&4%&1% | -12%[18.4 µM] | 14%&-3.6%&-1.9%&3.2% | -3% |
| O=CNc1c(Br)cc2c(c1Br)Cc1cc(Br)ccc1-2 | 5% | -4% | . | 12% | . | -3% | . | . |
| COC(=O)c1ccc(NC(=O)c2cc(=O)c3ccc(C)cc3o2)cc1 | 1%[46.1 µM] | -1% | . | 7%[46.1 µM] | -8% | . | -1.4% | . |
| O=C(C1CCN(S(=O)(=O)c2cccs2)CC1)N1CCCCCC1 | 7% | 7% | -9% | 23% | 1% | -4% | 6.3% | -3% |
| COc1ccc(C(=O)N2CCCCC2C(=O)Nc2ccc(-n3nc(C)cc3C)cc2)o1 (stereo not drawn) | . | 2% | -9% | . | . | -1% | . | 0% |
| Cc1cccc(-c2nc3scc(CCNC(=O)c4ccccc4Cl)n3n2)c1 | 2%[46.1 µM] | -3% | . | . | 4% | . | -7.3% | . |
| COc1ccc(CNCC(O)(c2ccccc2)c2ccccc2)cc1 | 0% | -5% | -1% | ? | . | 4% | . | 1% |
| O=C(NC1CCC(NC(=O)C(F)(F)C(F)F)CC1)C(F)(F)C(F)F (stereo not drawn) | 2% | 0% | 5% | 12% | 5% | 19% | 6.3% | 0% |
| CCOc1cc(CNS(=O)(=O)c2ccc3c(c2)CC(=O)N3C)cc(OCC)c1OCC | 11%[46.1 µM] | -6%&-15% | 18% | . | . | -10% | . | -2% |
| Cc1cc(NC(=O)Nc2ccc(Cl)c(Cl)c2)n(-c2ccccc2)n1 | -18% | ? | 5% | 14% | . | -25% | . | 0% |
| c1ccc(CC2CNc3ccccc3CN2)cc1 (stereo not drawn) | -21% | -13% | 0.89µM* | ? | 0% | -20% | 7.8% | 8% |
| O=C(O)c1ccc(N2C(=O)c3cccnc3C2=O)cc1 | -8% | 1% | . | 3%[46.1 µM] | . | ? | . | 1% |
| CC(C)N=c1scc(-c2ccco2)n1/N=C/c1ccc(O)c(O)c1 | . | 1% | -145% | . | -3% | ? | -16% | -31% |
| CCOC(=O)NC(=S)c1ccc[nH]1 | 3% | -8% | 1% | ? | -12% | -9% | -7.4% | 11% |
| Cc1ccc(NC2CCCN(C(=O)CCC3(C)CC3)C2)cc1C (stereo not drawn) | 1% | -8% | -2% | -10% | . | 2% | . | 6% |
| CCC(C)NS(=O)(=O)c1cccs1 (stereo not drawn) | 1% | -6% | -12% | -10% | 1% | 7% | 11% | 0% |
| O=c1cc(-c2ccco2)oc2ccccc12 | 11%[46.1 µM] | 40%[activator] | . | 22%[46.1 µM] | . | -13% | . | . |
| COc1ccccc1-n1c(CNC(=O)c2ccccc2)nnc1SCC(=O)Nc1nnc(C)s1 | . | -13% | 1% | . | . | 12% | . | 1% |
| O=C(Nc1ccc(-c2cscn2)cc1)C1CCCN(Cc2ccccc2)C1 (stereo not drawn) | . | 10% | 33% | . | . | 1% | . | 2% |
